Cruzain inh Det: blocks cruzain activity in presence of Triton detergent; Potency, µM, inactives show max response, negative = inhibition, hits mostly inhibitors; actives 0.43% (n = 200,000); P25779; purified cruzain, Z-FR-AMC fluorescence, 0.01% Triton; active = well fitted curve in the direction sought with a large enough effect; inconclusive = small, poorly fitted or top-dose-only effect, or another doubt; inactive = no such curve, though single readings can be large; an effect the other way counts as inactive or inconclusive;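 also: plate controls were neutral wells for no effect and buffer without enzyme for full effect; nearly all actives have a fitted effect of over 40% in size; top concentration of the series not given in the record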
Target sequence (P25779 123-467 limits assumed): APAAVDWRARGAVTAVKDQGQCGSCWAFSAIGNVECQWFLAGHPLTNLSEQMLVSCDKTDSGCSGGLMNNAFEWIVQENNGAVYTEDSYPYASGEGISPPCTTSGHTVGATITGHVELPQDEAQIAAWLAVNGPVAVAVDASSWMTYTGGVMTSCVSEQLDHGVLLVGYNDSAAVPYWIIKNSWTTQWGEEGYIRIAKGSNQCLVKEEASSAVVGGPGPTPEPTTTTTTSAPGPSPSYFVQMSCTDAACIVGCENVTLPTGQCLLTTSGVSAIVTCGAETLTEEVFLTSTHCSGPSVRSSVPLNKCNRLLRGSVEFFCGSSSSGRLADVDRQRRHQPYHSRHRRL
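Z-FR-AMC hydrolysis (2 uM substrate) by cruzain (1.5 nM) monitored kinetically at ex 360/em 450 nm after 15 min room-temperature compound exposure; 0.01% Triton X-100, pH 5.5, 5 mM DTT.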
NS1 inh: influenza NS1 inhibition; Potency, µM (doses to about 46.1 µM), for the others: top-dose activity, positive = more growth; S. cerevisiae slowed by influenza A NS1, growth recovery by OD600; actives 0.4% (n = 270,000); AID 2326; also: actives are rising curves; nearly all actives have a fitted effect of over 50% in size
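Read-out: OD600 growth recovery of NS1-expressing budding yeast. Cells grown overnight at 30C in -URA glucose medium, washed, resuspended and diluted 1:100 in 2% galactose assay medium, pH 6.0. Same strain lacking NS1 served as positive control.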
MARV entry inh: blocks Marburg virus binding to or entry into cells. Marburg virus pseudotyped entry inhibition, cell reporter; control for the full effect not named in the record; about a third of the inactives were read at about 46 µM. Potency, µM (doses to about 37.8 µM), inactives show at the top dose activity change, negative = inhibition, actives largely listed as inhibitors. actives 1.8% (n = 300,000). AID 540276; active = well fitted inhibition curve with a large enough effect; inconclusive = small, poorly fitted or top-dose-only effect, or effect the other way; inactive = flat fitted curve, though single readings scatter; tested in HEK293 cells; about a fifth of its hits are not listed in these tables; also: % is scaled to controls: 0 for no effect and ±100 for the full control effect; luciferase read-out
RE007 growth inh: less growth of the S. pombe RE007 Vpr strain. Potency, µM (highest dose often 92.2 µM), for the others: top-dose activity change, negative = less growth. actives 0.21% (n = 360,000). S. pombe RE007 Vpr strain, BacTiter-Glo ATP luminescence, 24 h; control for the full effect not named in the record; active = well fitted falling curve with a large enough effect; inconclusive = small, poorly fitted or top-dose-only effect; inactive = no such curve, though single readings can be large or run the other way;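 also: % is scaled to controls: 0 for no effect and ±100 for the full control effect; nearly all actives have a fitted effect of over 50% in size; the assay follows cell death caused by Vpr and the record does not say whether a fall means rescue or toxicity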
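Fission yeast strain RE007, carrying one chromosomally integrated HIV-1 vpr copy, was seeded at OD 0.01 in PMG+AL medium with 23 nL pinned compound. After 24 h at 30 °C and 99% humidity, viability was read by BacTiter-Glo luminescence.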
SARS PLpro yeast: inhibitors of SARS-CoV papain-like protease in yeast. S. cerevisiae expressing SARS-CoV PLpro, growth rescue; control for the full effect not named in the record. Potency, µM (highest dose often 32.9 µM), inactives show at the highest dose activity, positive = growth rescue. actives 0.19% (n = 330,000). AID 485353; also: 0% is about no effect; nearly all actives have a fitted effect of over 55% in size; growth read by luminescence after 48 h
LASV entry inh: inhibitors of Lassa virus binding or cell entry | AID 540256 | Lassa virus pseudotype entry inhibition, cell reporter; control for the full effect not named in the record | actives 1.2% (n = 300,000) | Potency, µM (highest dose often 37.9 µM), for the others: at the highest dose activity change, negative = inhibition, most hits filed as inhibitors; active means well fitted inhibition curve with a large enough effect; inconclusive means small, poorly fitted or top-dose-only effect, or effect the other way; inactive means flat fitted curve, though single readings scatter; tested in HEK293 cells; also: % is scaled to controls: 0 for no effect and ±100 for the full control effect; nearly all actives have a fitted effect of over 50% in size; luciferase read-out
Cruzain inh noDet: inhibitors of Trypanosoma cruzi cruzain without detergent; P25779; purified cruzain, Z-FR-AMC fluorescence, no detergent; Potency, µM, without a hit: max response, negative = inhibition, actives largely listed as inhibitors; actives 2.3% (n = 200,000); AID 1476; active = well fitted curve in the direction sought with a large enough effect; inconclusive = small, poorly fitted or top-dose-only effect, or another doubt; inactive = no such curve, though single readings can be large; an effect the other way counts as inactive or inconclusive;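 also: plate controls were enzyme without inhibitor for no effect and buffer without enzyme for full effect; nearly all actives have a fitted effect of over 40% in size; top concentration of the series not given in the record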
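Purified cruzain at 1.5 nM, pre-incubated 15 min with compound at room temperature in 100 mM sodium acetate pH 5.5, 5 mM DTT, 0.00005% Triton X-100. Reaction started with 2 uM Z-FR-AMC; AMC fluorescence increase over 60 s gives rate.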
2A StopGo: lowers the luciferase signal of an FMDV 2A StopGo reporter. human cells with a luciferase reporter of 2A StopGo recoding; control for the full effect not named in the record. Potency, µM (highest dose often 57.9 µM), for inactives: at the top dose signal change, negative = less light. actives 1.2% (n = 410,000); active = well fitted falling curve with a large enough effect; inconclusive = small, poorly fitted or top-dose-only effect; inactive = no such curve, though single readings can be large or run the other way; tested in HEK293T cells; also: % is scaled to controls: 0 for no effect and ±100 for the full control effect; nearly all actives have a fitted effect of over 45% in size; luciferase light after 4 h
* = called active by the depositor; ? = inconclusive; . = no result given; [ ] = another dose, or the depositor's remark. Unless noted, calls follow the shape of the dose curve; as a rule, active means well fitted rising curve with a large enough effect; inconclusive means small, poorly fitted or top-dose-only effect; inactive means no such curve, though single readings can be large or run the other way. Potency is read from the fitted curve at half-maximal effect.

SMILES	Cruzain inh Det	NS1 inh	MARV entry inh	RE007 growth inh	SARS PLpro yeast	LASV entry inh	Cruzain inh noDet	2A StopGo
CC(C)(O)C#Cc1ccc(C(=O)N2CCC(C(N)=O)(N3CCCCC3)CC2)o1	.	-0.3%	17.6%	0.6%	-7.0%	-11.7%	.	-14.9%
O=C(COc1cccnc1[N+](=O)[O-])Nc1ccc2c(c1)OCO2	.	4.9%	9.6%	-7.0%	0.3%	6.5%	.	24.1%
CN(CCNC(=O)c1cn(C)c2ccc(S(=O)(=O)N(C)C)cc2c1=O)CCc1ccccc1	-4.0%	-3.7%	.	-4.8%	-0.8%	.	-5.5%	-0.5%
COc1cccc(C(=O)Nn2cnnc2)c1	.	1.7%	1.4%	-10.7%	0.6%	-3.5%[46.1 µM]	.	-12.6%
CCOc1ccc(NC(=O)C23CC4CC(C2)CC(c2ccccc2)(C4)C3)cc1	5.2%	?	-18.9%	3.1%	-3.4%	-5.9%	-27.5%	?
C=C(C)C1CC=C(C)/C(=N/NC(=O)CNc2ccc(C)cc2C)C1 (stereo unspecified)	-3.6%	-7.6%	?	-7.3%	-11.2%	6.2%	5.3%	-13.7%
Cc1noc(C)c1C(=O)Nc1ccc(F)cc1	.	.	-11.8%[46.1 µM]	18.6%	1.2%	1.2%	.	-11.9%
CCOc1ccc(CCNC(=O)CCCn2nc(C)c3sc4ccccc4c3c2=O)cc1OCC	-26.2%	.	?	.	.	?	-7.9%	-25.9%
CC(=O)Nc1ccc(NC(=O)C(C)O/N=C/c2cccc([N+](=O)[O-])c2)cc1 (stereo unspecified)	1.7%	2.0%	1.7%	14.1%	1.1%	5.0%	9.1%	-21.4%
O=S(=O)(NCc1ccccn1)c1ccc(Cl)c(C(F)(F)F)c1	.	13.9%	.	7.7%	1.3%	.	.	31.9%[activator]
COc1ccccc1NC(=O)Cn1nc(Cc2cccnc2)c2ccccc2c1=O	.	-5.3%	-8.7%[46.1 µM]	6.2%	-1.3%	-21.1%	.	-10.6%
CCOC(=O)CN1C(=O)CCSc2ccc(Cl)cc21	.	-1.3%	1.5%[46.1 µM]	-6.2%	0.0%	-1.3%[46.1 µM]	.	-9.5%
COC(=O)c1c(C)oc(C)c1S(=O)(=O)NCc1ccc(Cl)cc1Cl	.	-6.2%	-29.1%	11.7%	-4.5%	-11.3%	.	112.3%[activator]
Cc1cc(C)n(CCCNC(=O)C2CCC(=O)N(CCc3ccc(Cl)cc3)C2)n1 (stereo unspecified)	.	-2.2%	.	-0.8%	-3.5%	.	.	-13.0%
CC(Sc1ccccc1F)C(=O)Nc1ccc2c(c1)OCCO2 (stereo unspecified)	.	.	13.0%	32.3%	-5.4%	17.4%	.	10.0%
Cc1[nH]c(=S)n(CC2CCCO2)c1C (stereo unspecified)	1.7%	1.3%	9.1%	-12.4%	?	14.2%	8.7%	19.2%
CC(C)=N/N=C1/NC(=O)C(c2ccccc2)S1 (stereo unspecified)	.	.	?	-1.9%	.	-1.7%	.	-8.0%
Cc1c(Cl)cccc1NC(=O)NCc1ccc(C)n1C	.	-3.4%	.	-13.4%	-0.2%	.	.	23.0%
CC(=O)Nc1ccc(S(=O)(=O)N[C@@H](C)C(=O)OCC(=O)c2ccc[nH]2)cc1	.	.	0.2%	2.8%	-0.1%	-0.3%	.	-4.3%
O=S(=O)(c1ccc2c(c1)nc(COc1ccc(Cl)cc1)n2CC1CCCO1)N1CCOCC1 (stereo unspecified)	-2.5%	9.1%	?	9.3%	-7.7%	?	?	-22.9%
C[C@H](NC(=O)C1CC(=O)N(c2ccc3c(c2)OCO3)C1)C(=O)NCc1ccco1 (stereo partly specified)	.	5.0%	.	2.0%	-3.2%	.	.	-3.2%
COc1cccc(N2CCN(C(=O)c3oc4ccccc4c3NC(=O)CCc3cc(OC)no3)CC2)c1	.	-5.0%	-20.2%[46.1 µM]	4.7%	.	-28.7%[46.1 µM]	.	41.8%[activator]
CSCCC(NC(=O)c1ccc(C)o1)C(=O)O (stereo unspecified)	1.9%	0.0%	-6.3%	3.7%	0.8%	1.8%	5.5%	-13.0%
CC(OC(=O)c1cc(S(=O)(=O)N2CCOCC2)ccc1F)C(=O)NC1CCCCC1C (stereo unspecified)	.	3.6%	?	-2.6%	-0.3%	-24.2%	.	-26.8%
CS(=O)(=O)N(Cc1ccc(Cl)cc1)c1ccc(C(=O)NCC2CCCO2)cc1 (stereo unspecified)	.	-3.7%	-2.8%[46.1 µM]	6.0%	-0.1%	?	.	-18.8%
CCOC(=O)C1(c2ccccc2)CCN(CC(=O)c2ccc(NC(C)=O)cc2)CC1	.	.	-11.5%[46.1 µM]	1.4%	.	-18.9%[46.1 µM]	.	?
COc1ccc2c(c1)C1=NN(/C(C)=C/C(C)=O)C(c3ccc(F)cc3)C1CC2 (stereo unspecified)	-4.8%	-7.8%	5.9%	-1.4%	-0.4%	4.6%	-1.5%	-8.6%
NC(=O)C1CCN(C(=O)c2ccco2)CC1	0.0%	9.2%[9.22 µM]	-2.0%	-6.2%	9.1%	-12.0%	-2.7%	.
COc1ccc(CC(=O)N/N=C/c2ccc(-c3ccc(F)cc3)o2)cc1OC	.	-15.3%	?	4.9%	-1.0%	?	.	-10.6%
CCc1ccccc1NC(=O)C(C)n1c(=O)cc(C)c2c(C)nn(-c3ccccc3)c21 (stereo unspecified)	-0.6%	.	.	.	.	27.5%[46.1 µM]	-7.5%	6.2%
CN1C(=O)N(C)C(=O)C2(Cc3c(nc4ccccn4c3=O)N3CCc4ccccc4C32)C1=O (stereo unspecified)	-5.4%	-11.5%	6.0%	-21.6%	-0.4%	-2.1%	2.1%	?
CCOC(OCC)c1ccc(/C=C\c2nccc(N)n2)cc1	.	-3.4%	.	-23.7%	-1.2%	.	.	56.9%[activator]
O=C(C1CCCN(S(=O)(=O)c2cccnc2)C1)N1CCN(c2ccccn2)CC1 (stereo unspecified)	-0.3%	0.2%	0.9%	-11.8%	-10.1%	?	11.2%	?
Cc1c(C(=O)Nc2ccc(S(=O)(=O)NCC3CCCO3)cc2)cccc1[N+](=O)[O-] (stereo unspecified)	.	1.5%	?	5.4%	22.2%	-29.3%[46.1 µM]	.	26.8%
COc1ccc(NS(=O)(=O)c2csc(C(N)=O)c2)cc1	.	-2.4%	-14.0%[46.1 µM]	16.3%	-2.3%	-5.0%[46.1 µM]	.	33.7%[activator]
Cc1ccc(C(=O)c2no[n+]([O-])c2C(=O)c2ccc(C)cc2)cc1	?	-65.1%	8.8%	31.6µM*	-139.1%	-14.7%[46.1 µM]	25.1µM*	?
COc1ccc(Cn2nnnc2C(c2cccnc2)N2CCN(c3ccc(O)cc3)CC2)cc1 (stereo unspecified)	4.7%	5.7%	12.7%	5.2%	-5.3%	?	5.3%	.
CCOC(=O)c1ccc(-n2c(CCC(=O)O)ccc2-c2ccc(Br)cc2)cc1	-15.1%	.	-2.4%[46.1 µM]	.	.	-13.1%[46.1 µM]	26.8%	-13.1%
N#C/C(=C\c1ccccc1[N+](=O)[O-])C(=O)NC1CCCCC1	.	.	?	15.0%	-23.3%	?	.	35.5µM*
C[C@@]12C(=O)N(CCO)CC(=O)N1[C@H](/C=C/c1ccccc1)[C@@H]1C(=O)N(c3ccccc3)C(=O)[C@@H]12	.	-3.1%	.	20.5%	-0.3%	.	.	-6.4%
COC(=O)c1ccc(NC(=O)CSCc2ccc(C)cc2)cc1	-4.8%	-80.7%	2.6%	-12.3%	-16.8%	?	5.1%	0.1%
CC(C)c1onc(C(=O)N2CCN(Cc3ccccc3)CC2)c1[N+](=O)[O-]	6.2%	?	3.6%	0.3%	5.0%	3.9%	13.6%	-15.1%
COc1ccc(OC)c(CCNC(=O)Cn2nc(C)c3c(C)n(-c4ccc(C)cc4)nc3c2=O)c1	.	-16.6%	?	-21.8%	-0.7%	?	.	?
CSc1ccccc1OCc1cc(C(=O)NC(C)Cn2cncn2)no1 (stereo unspecified)	.	1.1%	-2.7%	-5.1%	-2.7%	?	.	4.5%
COc1ccc(C(CNC(=O)c2cccc(S(=O)(=O)NCc3ccccc3)c2)N(C)C)cc1 (stereo unspecified)	.	0.7%	.	-0.8%	-6.0%	.	.	18.3%
COc1ccc(NCc2nnc(SCC(=O)NCc3ccccc3)n2-c2ccccc2OC)cc1	-18.4%	7.0%	?	0.3%	13.1%	-3.6%	-21.3%	-16.4%
CCCCN(C(=O)CSCC(=O)Nc1ccc(C)cc1)c1c(N)n(CCCC)c(=O)[nH]c1=O	.	.	-1.0%	0.2%	-0.6%	3.2%[46.1 µM]	.	4.7%
COc1cccc(-c2nc3ccc(C(=O)NC(C)Cc4cccnc4)cc3o2)c1 (stereo unspecified)	.	-6.3%	.	-19.7%	-0.5%	.	.	9.1%
Cc1cc(N2CCC(C)CC2)nc(-c2ccccc2O)n1	.	1.3%	.	-2.9%	-2.8%	.	.	-22.6%
CC1(C)CC(=O)C(C2(O)C(=O)NC(=O)NC2=O)=C(O)C1	1.1%	-1.5%	0.2%	5.8%	4.5%	25.0%	1.8%	.
Next records follow:
SMILES	Cruzain inh Det	NS1 inh	MARV entry inh	RE007 growth inh	SARS PLpro yeast	LASV entry inh	Cruzain inh noDet	2A StopGo
CCOC(=O)c1ccc(Nc2nc3ccccc3nc2NS(=O)(=O)c2ccc(Cl)cc2)cc1	-2.1%	.	.	.	.	-16.0%[46.1 µM]	-3.9%	?
CCC(=O)N1CCN(c2ccc(NC(=O)c3ccc4c(c3)OCO4)cc2)CC1	1.1%	-6.1%	?	17.8%	5.2%	5.1%	11.3%	-7.8%
CCOC(=O)C1CCCN(Cc2c(C(=O)N3CCCCC3)nc3c(C)cccn23)C1 (stereo unspecified)	.	-3.1%	5.0%[46.1 µM]	-4.7%	0.6%	-0.9%[46.1 µM]	.	-11.6%
COc1cc2ccccc2cc1C(=O)Nc1cccnc1	4.7%	-76.2%	?	-24.8%	-23.5%	-3.5%	-0.7%	63.5%[activator]
COCCc1ncc(CN2CCCCC2C(=O)Nc2ccc(Oc3ccccc3)nc2)cn1 (stereo unspecified)	.	4.5%	-2.7%[46.1 µM]	-17.0%	13.6%	16.6%[46.1 µM]	.	7.7%
O=C(Nc1cccc2c1[nH]c1ccccc12)C(F)(F)F	-9.7%	-22.6%	.	-19.8%	-24.5%	?	-6.6%	-19.5%
O=C(Nc1cccc(C(=O)O)c1)/C(=C\c1ccc2c(c1)OCO2)NC(=O)c1ccc(Br)cc1	.	.	1.0%	-7.6%	1.3%	5.0%	.	-9.2%

Rows were taken by chance. Share with any hit: about 4.7%.
